# SARS PLP yeast = inhibitors of SARS-CoV papain-like protease in yeast. S. cerevisiae expressing SARS-CoV PLpro, growth rescue; control for the full effect not named in the record. Potency, µM (doses to about 32.9 µM), for the others: at the highest dose activity, positive = growth rescue. 330,000 tested, 0.19% active. AID 485353; further: 0% is about no effect; nearly all actives have a fitted effect of over 55% in size; growth read by luminescence after 48 h
# Lassa entry inh = blocks Lassa virus binding to or entry into cells | 300,000 tested, 1.2% active | Lassa virus pseudotype entry inhibition, cell reporter; control for the full effect not named in the record | AID 540256 | Potency, µM (series often up to 37.9 µM), inactives show at the top dose activity change, negative = inhibition, most hits filed as inhibitors; active means well fitted inhibition curve with a large enough effect; inconclusive means small, poorly fitted or top-dose-only effect, or effect the other way; inactive means flat fitted curve, though single readings scatter; tested in HEK293 cells; further: on the % scale 0 is the no-effect control and ±100 the full control effect; nearly all actives have a fitted effect of over 50% in size; luciferase read-out
# NS1 inh = inhibitors of influenza NS1 protein function; Potency, µM (doses to about 46.1 µM), inactives show at the highest dose activity, positive = more growth; S. cerevisiae slowed by influenza A NS1, growth recovery by OD600; AID 2326; 270,000 tested, 0.4% active; further: actives are rising curves; nearly all actives have a fitted effect of over 50% in size
#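 In this qHTS, NS1 from influenza A is expressed in budding yeast, where it slows growth. Cells are switched from glucose to 2% galactose medium (pH 6.0, -URA), treated with compound, and growth recovery is read at OD600.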
# MARV entry inh = inhibitors of Marburg virus binding or cell entry. Marburg virus pseudotyped entry inhibition, cell reporter; control for the full effect not named in the record; about a third of the inactives were read at about 46 µM. Potency, µM (series often up to 37.8 µM), for inactives: at the highest dose activity change, negative = inhibition, usual class: inhibitors. 300,000 tested, 1.8% active; active = well fitted inhibition curve with a large enough effect; inconclusive = small, poorly fitted or top-dose-only effect, or effect the other way; inactive = flat fitted curve, though single readings scatter; tested in HEK293 cells; about a fifth of its hits are not listed in these tables; further: on the % scale 0 is the no-effect control and ±100 the full control effect; luciferase read-out
# 2A StopGo = FMDV 2A StopGo reporter, luciferase signal | human cells with a luciferase reporter of 2A StopGo recoding; control for the full effect not named in the record | Potency, µM (titrated, usually from 57.9 µM), inactives show at the highest dose signal change, negative = less light | 410,000 tested, 1.2% active; active = well fitted falling curve with a large enough effect; inconclusive = small, poorly fitted or top-dose-only effect; inactive = no such curve, though single readings can be large or run the other way; tested in HEK293T cells; further: on the % scale 0 is the no-effect control and ±100 the full control effect; nearly all actives have a fitted effect of over 45% in size; luciferase light after 4 h
# RE007 growth inh = less growth of the S. pombe RE007 Vpr strain; S. pombe RE007 Vpr strain, BacTiter-Glo ATP luminescence, 24 h; control for the full effect not named in the record; Potency, µM (series often up to 92.2 µM), for inactives: at the highest dose activity change, negative = less growth; 360,000 tested, 0.21% active; active = well fitted falling curve with a large enough effect; inconclusive = small, poorly fitted or top-dose-only effect; inactive = no such curve, though single readings can be large or run the other way;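 further: on the % scale 0 is the no-effect control and ±100 the full control effect; nearly all actives have a fitted effect of over 50% in size; the assay follows cell death caused by Vpr and the record does not say whether a fall means rescue or toxicity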
#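 Fission yeast RE007 carrying one integrated HIV-1 vpr copy, seeded at OD 0.01 in PMG+AL medium with 23 nL pinned compound. Grown 24 h at 30 degrees; viability read by BacTiter-Glo luminescence after 5 min.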
# Cruzain Triton = inhibitors of Trypanosoma cruzi cruzain with detergent. P25779. purified cruzain, Z-FR-AMC fluorescence, 0.01% Triton. Potency, µM, for inactives: max response, negative = inhibition, usual class: inhibitors. 200,000 tested, 0.43% active. AID 1478; active means well fitted curve in the direction sought with a large enough effect; inconclusive means small, poorly fitted or top-dose-only effect, or another doubt; inactive means no such curve, though single readings can be large; an effect the other way counts as inactive or inconclusive;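 further: plate controls were neutral wells for no effect and buffer without enzyme for full effect; nearly all actives have a fitted effect of over 40% in size; top concentration of the series not given in the record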
# Target sequence (P25779 123-467 limits assumed): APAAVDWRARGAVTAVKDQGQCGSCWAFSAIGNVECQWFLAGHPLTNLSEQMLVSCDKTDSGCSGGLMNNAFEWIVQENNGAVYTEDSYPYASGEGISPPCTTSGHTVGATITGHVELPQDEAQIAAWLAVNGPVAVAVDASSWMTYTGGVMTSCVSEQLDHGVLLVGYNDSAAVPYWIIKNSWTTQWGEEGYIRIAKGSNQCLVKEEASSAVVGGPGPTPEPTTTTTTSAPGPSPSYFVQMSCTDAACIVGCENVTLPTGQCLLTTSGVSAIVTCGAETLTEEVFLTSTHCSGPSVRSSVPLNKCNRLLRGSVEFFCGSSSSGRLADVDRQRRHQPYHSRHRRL
#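 Sodium acetate buffer (100 mM, pH 5.5) containing 5 mM DTT and 0.01% Triton X-100 hosted 1.5 nM cruzain and test compound for 15 min at room temperature. Cleavage of 2 uM Z-FR-AMC was then tracked by fluorescence.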
# Cruzain noTriton = inhibitors of Trypanosoma cruzi cruzain without detergent | AID 1476 | P25779 | Potency, µM, inactives show max response, negative = inhibition, actives largely listed as inhibitors | purified cruzain, Z-FR-AMC fluorescence, no detergent | 200,000 tested, 2.3% active; active means well fitted curve in the direction sought with a large enough effect; inconclusive means small, poorly fitted or top-dose-only effect, or another doubt; inactive means no such curve, though single readings can be large; an effect the other way counts as inactive or inconclusive;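 further: plate controls were enzyme without inhibitor for no effect and buffer without enzyme for full effect; nearly all actives have a fitted effect of over 40% in size; top concentration of the series not given in the record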
#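 Purified cruzain at 1.5 nM, pre-incubated 15 min with compound at room temperature in 100 mM sodium acetate pH 5.5, 5 mM DTT, 0.00005% Triton X-100. Reaction started with 2 uM Z-FR-AMC; AMC fluorescence increase over 60 s gives rate.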
# * marks the source's active call; other numbers are inactive results; ? = inconclusive; . = no result given; & = joins results of further samples; [ ] = another dose, or the depositor's remark. Unless noted, the call rests on the fitted dose curve; in most records, active means well fitted rising curve with a large enough effect; inconclusive means small, poorly fitted or top-dose-only effect; inactive means no such curve, though single readings can be large or run the other way. Potency means the concentration at half of the fitted maximal effect.
item | Compound | SARS PLP yeast | Lassa entry inh | NS1 inh | MARV entry inh
1 | O=C(O)c1ccc(NS(=O)(=O)c2cccc(C(=O)Nc3cccc(C(=O)O)c3)c2)cc1 | -2% | . | 14% | .
2 | COc1ccc(CCN(Cc2cccs2)S(=O)(=O)c2ccc(-n3cnnn3)cc2)cc1OC | -5% | ? | -33% | ?
3 | Cc1cccc(NC(=S)NC(=O)c2cc(-c3ccccc3)nc3ccccc23)c1 | -6% | 0% | 18% | -26%
4 | Cc1cc(Nc2ccccc2)nc(N)n1 | 3% | ? | 9% | 3%
5 | COc1cccc(NC(=O)CCNC(=O)C2CCN(S(=O)(=O)c3ccc(F)cc3)CC2)c1 | 1% | . | 3% | .
6 | O=C1N2CN(C(c3ccccc3)c3ccccc3)CN=C2SC1(CO)CO | 2% | 12% | 8% | 0%
7 | Cc1ccc(S(=O)(=O)Oc2ccc(/C=N/N=C3/NC(=O)C(CC(=O)O)S3)cc2)cc1 (centres undefined) | 1% | 14% | 13% | 13%
8 | O=c1cc(CN2CCc3ccccc32)nc2sccn12 | -1% | ? | 14% | 11%
9 | O=C(CS(=O)(=O)c1ccc2ccccc2c1)Nc1ccccc1Cl | 9% | -3% | 3% | 16%
10 | CCN(CC)CCCNC(=O)c1ccc2c(=O)n(Cc3ccc4c(c3)OCO4)c(=S)[nH]c2c1 | -4% | ? | . | ?
11 | CCOC(=O)CCc1c(C)c(C#N)c2nc3ccccc3n2c1-n1ccnc1 | ? | 11% | 1% | 4%
12 | Cc1ccc2c(c1)c1nnc(SCC(=O)N3CCCc4ccccc43)nc1n2CC(=O)O | -3% | 4% | -5% | -11%[46.1 µM]
13 | Cc1ccc(NC(=O)N2CCCCCC2)cc1C | 4% | -16%[46.1 µM] | 7% | ?
14 | CC(=O)Nc1cccc(NC(=O)c2cccc(OCc3ccccc3)c2)c1 | 2% | . | -9% | .
15 | COc1cc(/C=N/n2cnnc2)ccc1OC(=O)N(C)C | 1% | -4% | 13% | 12%

item | 2A StopGo | RE007 growth inh | Cruzain Triton | Cruzain noTriton
1 | -14% | -13% | . | .
2 | ? | 4% | -0.2% | ?
3 | 6% | -2% | 7.9% | 20µM*
4 | 24% | 7% | 1.4% | 7%
5 | 0% | -2% | . | .
6 | -7% | -12% | -1.1% | -4%
7 | -13% | 24% | . | .
8 | 5% | 1% | 1.9% | ?
9 | -5% | -12% | -5.7% | 5%
10 | -22% | -7% | . | .
11 | -22% | -3% | -1.8% | 9%
12 | -20% | 6% | . | .
13 | 32%[activator] | 4% | . | .
14 | ? | 6% | . | .
15 | . | -9% | -12% | -14%

# Entries listed so far with two or more sulfur atoms:
item | Compound | SARS PLP yeast | Lassa entry inh | NS1 inh | MARV entry inh
2 | COc1ccc(CCN(Cc2cccs2)S(=O)(=O)c2ccc(-n3cnnn3)cc2)cc1OC | -5% | ? | -33% | ?
7 | Cc1ccc(S(=O)(=O)Oc2ccc(/C=N/N=C3/NC(=O)C(CC(=O)O)S3)cc2)cc1 (centres undefined) | 1% | 14% | 13% | 13%

item | 2A StopGo | RE007 growth inh | Cruzain Triton | Cruzain noTriton
2 | ? | 4% | -0.2% | ?
7 | -13% | 24% | . | .

# Single values from the entries so far.
# compound 3 in NS1 inh → 18%
# compound 8 in 2A StopGo → 5%

# New compounds follow
item | Compound | SARS PLP yeast | Lassa entry inh | NS1 inh | MARV entry inh
16 | CCCC(=O)Nc1ccccc1NC(=O)C1CCCCC1 | 1% | 3% | 26% | 4%
17 | Cc1ccc(S(=O)(=O)/N=C2/NC(=O)/C(=C\c3ccco3)S2)cc1 | -24% | -1% | -6% | 13%
18 | CCOc1cc(/C=N/N=C2/NC(=O)C(CC(=O)O)S2)ccc1OCc1ccccc1Cl (centres undefined) | 0% | ? | 14% | ?
19 | Cn1c(CN2CCN(CC#N)CC2)c(C#N)c2ccccc21 | -5% | ? | -5% | ?
20 | O=S(=O)(CCn1cccc1)CCn1cccc1 | 6% | -1% | 1% | -5%[46.1 µM]
21 | O=C(CCN1CCOCC1)NCC(=O)Nc1ccc(Br)cc1C(=O)c1ccccc1 | -1% | -3% | -1% | 0%
22 | O=C1NC[C@H](Cc2ccccc2)N(CC2CCCCC2)C1=O | -2% | . | 0% | .
23 | Cc1ccccc1NC(=O)c1nn(-c2ccc(F)c(F)c2)ccc1=O | -1% | 5%[46.1 µM] | 2% | ?
24 | N#C/C(=C\Nc1ccc(Cl)cn1)S(=O)(=O)c1ccccn1 | 3% | . | 1% | .
25 | CCN1C(=O)CS/C1=N\c1nccs1 | -2% | 0% | -1% | -1%[46.1 µM]
26 | CCn1c(SCC(=O)c2ccc(NC(C)=O)c(OC)c2)nnc1-c1ccc(NS(C)(=O)=O)cc1 | 17% | ? | 4% | 9%
27 | CCCCNC(=O)[C@@H]1CSC2c3ccc(OC)c(OC)c3C(=O)N21 (some centres undefined) | -1% | . | 4% | -2%
28 | CCN(CC)S(=O)(=O)c1ccc(OC)c(NC(=S)Nc2ccc(C)c(C)c2)c1 | 5% | 1% | 18% | ?
29 | O=C(Nc1ccon1)Nc1cc(Cl)ccc1Cl | -2% | . | -17% | .
30 | CCOC(=O)CNC(=S)N(CCCN1CCCC1)Cc1cccs1 | 0% | 11%[46.1 µM] | . | ?

item | 2A StopGo | RE007 growth inh | Cruzain Triton | Cruzain noTriton
16 | 10% | 20% | 2.3% | -1%
17 | 18% | 15% | -13% | -4%
18 | 11% | -11% | . | .
19 | 19% | 16% | 1.1% | 7%
20 | -25% | 32% | 0.7% | 5%
21 | 4% | 20% | 1.4% | -2%
22 | -14% | -3% | . | .
23 | 7% | 6% | . | .
24 | 1% | 7% | . | .
25 | -18% | -2% | 3.6% | 2%
26 | -13% | 4% | -1.5% | -1%
27 | -17% | 12% | . | .
28 | 10% | -12% | -9.0% | 3%
29 | 23% | -11% | . | .
30 | -7% | ? | . | .

# 3 records picked at random from those above, as already listed:
item | Compound | SARS PLP yeast | Lassa entry inh | NS1 inh | MARV entry inh
18 | CCOc1cc(/C=N/N=C2/NC(=O)C(CC(=O)O)S2)ccc1OCc1ccccc1Cl (centres undefined) | 0% | ? | 14% | ?
16 | CCCC(=O)Nc1ccccc1NC(=O)C1CCCCC1 | 1% | 3% | 26% | 4%
22 | O=C1NC[C@H](Cc2ccccc2)N(CC2CCCCC2)C1=O | -2% | . | 0% | .

item | 2A StopGo | RE007 growth inh | Cruzain Triton | Cruzain noTriton
18 | 11% | -11% | . | .
16 | 10% | 20% | 2.3% | -1%
22 | -14% | -3% | . | .

# Carrying on.
item | Compound | SARS PLP yeast | Lassa entry inh | NS1 inh | MARV entry inh
31 | O=C(O)CCS(=O)(=O)c1nc(-c2cccs2)cc(C(F)(F)F)n1 | -20% | -14% | -58% | -11%
32 | Cc1ccc(Cc2nc(-c3cccnc3)no2)cc1 | ? | 8% | -11% | 11%
33 | CCCN(C(=O)COc1cc(=O)n(CC)c2ccccc12)c1ccc(C(C)C)cc1 | . | -24%[46.1 µM] | . | -18%[46.1 µM]
34 | O=C(Nc1nc2ccccc2c(=O)s1)c1ccco1 | -10% | . | -75% | .
35 | CCOc1ccc(-c2cc3c(=O)n(CC(=O)NCc4ccc(F)cc4)ccn3n2)cc1 | . | ? | . | .
36 | O=C(Cn1ncc2c3ccccc3n(Cc3ccccc3)c2c1=O)NCCCN1CCCC1 | 0% | . | 13% | .
37 | CS(=O)(=O)c1ccc(C(=O)Nc2ccc(S(=O)(=O)N3CCCCC3)cc2)cc1 | 1% | -7% | . | ?
38 | O=C(NCc1ccccc1)c1ccc(CN2CCC(Cc3ccccc3)CC2)cc1 | -1% | . | 9% | .
39 | C=CCN=C(SCC(=O)c1ccc(Cl)cc1)c1c(O)n(C)c(=O)n(C)c1=O | 0% | . | -1% | .
40 | N#CCSc1nnc(CNc2cccc(Cl)c2)o1 | -11% | -15% | -5% | ?
41 | CCC(=O)O/N=C(\N)c1ccc(Oc2cc(C)c(Cl)c(C)c2)c([N+](=O)[O-])c1 | -1% | -21% | -9% | ?
42 | COc1ccc(-n2ccc(=O)c(C(=O)Nc3ccc(S(=O)(=O)Nc4nccs4)cc3)n2)cc1 | 7% | . | -10% | .
43 | COc1cc(O)c(C(CC(=O)N2CCOCC2)c2cc(OC)c(OC)c(OC)c2)c(OC)c1 (centres undefined) | -1% | . | -1% | .
44 | O=C(O)C1CC=CCC1C(=O)NCCCCc1ccccc1 (centres undefined) | -1% | 3%[46.1 µM] | 1% | ?
45 | CC(Sc1nn(-c2ccc(F)cc2)c(=S)s1)C(=O)c1c(N)n(C)c(=O)n(C)c1=O (centres undefined) | -3% | -29% | . | -63%
46 | CCCNS(=O)(=O)c1ccc(CCC(=O)N2CCCCC2)cc1 | 7% | 0% | -12% | 5%
47 | COc1ccc(N2C(=O)/C(=C\c3ccco3)N=C2SCC(=O)NC(C)C)cc1Cl | -23% | 20% | 23% | 6%
48 | COCCn1c(=O)[nH]c2cc(C(=O)NCCN3CCN(c4ccc(OC)cc4)CC3)ccc2c1=O | -16% | 5% | -3% | -17%&-17%

item | 2A StopGo | RE007 growth inh | Cruzain Triton | Cruzain noTriton
31 | -26% | -9% | -8.0% | -7%
32 | 25% | 6% | 3.4% | 3%
33 | ? | . | -6.5% | ?
34 | -12% | ? | . | .
35 | 25% | . | 1.2% | 4%
36 | -10% | -12% | . | .
37 | -28% | 4% | . | .
38 | 0% | -4% | . | .
39 | -18% | 24% | . | .
40 | -11% | 0% | -0.4% | -10%
41 | -4% | -5% | . | .
42 | 35%[activator] | -3% | . | .
43 | -16% | 6% | . | .
44 | 10% | -2% | . | .
45 | ? | 15% | . | .
46 | 27% | 24% | 5.0% | 12%
47 | -8% | 7% | -15% | 4%
48 | -17% | -7% | -3.0% | -6%

# This is a random part of the collection (roughly 4.7% active in at least one column).
